KCNQ2 inh: KCNQ2 potassium channel inhibitors, primary screen, cell-based, CHO-K1, FluxOR thallium flux, B-score (AID 2156). B-score at 10 µM. 20 min; active compounds read low; only compounds with negative scores are shown here; some inactives read as strong as hits. O88943. 1.1% of 310,000 active;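 active means fluorescence ratio B-score at most minus 3 library SDs, with starting brightness B-score within 2 library SDs, cut at about -5.5 in these data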
Target sequence (O88943 whole entry, looked up): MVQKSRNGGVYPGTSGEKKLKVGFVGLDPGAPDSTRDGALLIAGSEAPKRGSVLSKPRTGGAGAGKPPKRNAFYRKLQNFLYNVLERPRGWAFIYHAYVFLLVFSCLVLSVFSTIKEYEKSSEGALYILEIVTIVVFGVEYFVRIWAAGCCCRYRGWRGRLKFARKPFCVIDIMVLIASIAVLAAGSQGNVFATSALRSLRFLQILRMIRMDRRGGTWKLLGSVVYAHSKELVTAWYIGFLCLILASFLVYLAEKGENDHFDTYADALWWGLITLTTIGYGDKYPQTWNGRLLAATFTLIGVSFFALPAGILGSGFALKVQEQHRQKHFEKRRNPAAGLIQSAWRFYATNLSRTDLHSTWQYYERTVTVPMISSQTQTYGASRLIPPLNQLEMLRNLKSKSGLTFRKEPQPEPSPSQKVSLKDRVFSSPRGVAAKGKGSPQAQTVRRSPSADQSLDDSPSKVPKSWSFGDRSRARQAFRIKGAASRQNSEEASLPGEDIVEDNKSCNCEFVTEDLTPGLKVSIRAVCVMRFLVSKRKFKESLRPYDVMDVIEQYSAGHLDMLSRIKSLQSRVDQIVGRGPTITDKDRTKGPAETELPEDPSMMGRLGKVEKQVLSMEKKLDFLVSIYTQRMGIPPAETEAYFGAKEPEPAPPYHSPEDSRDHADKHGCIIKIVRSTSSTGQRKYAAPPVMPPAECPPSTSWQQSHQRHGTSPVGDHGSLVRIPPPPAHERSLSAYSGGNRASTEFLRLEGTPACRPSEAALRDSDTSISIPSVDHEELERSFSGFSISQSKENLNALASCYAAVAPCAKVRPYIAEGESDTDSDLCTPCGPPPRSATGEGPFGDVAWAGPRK
KCNQ2 inh baseline: second read-out of KCNQ2 inh, no call of its own (marks repeat the call); B-score; measured here: initial fluorescence intensity artifact check;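 brightness before thallium and not channel activity; 0 = typical well and far values either way flag optical interference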
The depositor's hits bear a star; i = inactive. These rows are one share of the data (hit frequency here may not be typical).

SMILES,KCNQ2 inh,KCNQ2 inh baseline
COCCCNC(=O)c1sc2ncn(CC(=O)Nc3ccc(C)c(Cl)c3)c(=O)c2c1C,i,0.66
COC(=O)c1ccccc1NC(=O)C1CC(=O)N(C2CCCCC2)C1 (configuration not stated),i,-0.22
Cc1ccc(N2CC(C(=O)N3CCCCC3)CC2=O)cc1C (configuration not stated),i,-0.02
O=C1CC(c2ccncc2)c2cc3c(cc2N1)OCCO3 (configuration not stated),i,-2.3
COc1ccc(CCNC(=O)c2ccc(NC(=O)CC3SC(N4CCCC4)=NC3=O)cc2)cc1 (configuration not stated),i,0.84
Cc1cc(NC(=O)CN2CC(C)OC(C)C2)n(-c2nc3ccccc3s2)n1 (configuration not stated),i,-0.18
CCCCn1c(N)c(N(CC(C)C)C(=O)C2CCN(S(=O)(=O)c3ccc(C)cc3C)CC2)c(=O)[nH]c1=O,i,-1.4
CCCCn1c(N)c(N(CC(C)C)C(=O)c2ccc(S(=O)(=O)N3CCCCCC3)cc2)c(=O)[nH]c1=O,i,1.8
COc1ccc(-c2csc(Cc3nc(O)cs3)n2)cc1,i,-0.13
CC(C(=O)NCc1ccccc1Cl)N1C(=O)c2ccccc2C1=O (configuration not stated),i,-0.72
COc1ccc(Cl)cc1NS(=O)(=O)c1c(C)nc2sccn2c1=O,i,0.06
OCCOCCn1c(C2CCCN2c2nc(-c3ccc(F)cc3)cs2)nc2cc(Cl)c(Cl)cc21 (configuration not stated),i,3.2
O=C(CNC(=O)c1ccco1)Nc1ccc(S(=O)(=O)N2CCCC2)cc1,i,-0.29
CC(=O)c1ccc(NC(=O)CSc2nc3[nH]ncc3c(=O)[nH]2)cc1,i,-0.18
COc1cc(/C=N\NC(=O)C2COc3ccccc3O2)cc(OC)c1O (configuration not stated),i,0.76
CN(C)C(CNC(=O)CCc1nc2cc(Cl)ccc2n(Cc2ccccc2)c1=O)c1ccccc1 (configuration not stated),i,-1.2
CC(=O)Nc1ccc(Oc2cncc(Cl)c2)nc1,i,-0.11
CSCCC(NC(=O)c1ccccc1Br)C(=O)Nc1ccc(C)cc1 (configuration not stated),i,-1.5
CCCc1nc2c(c(=O)c3ccccc3n2C)c(=O)n1-c1ccc(F)cc1,i,-0.78
Cc1ccccc1NC(=O)C1CCN(c2cnccn2)CC1,i,-0.27
O=C(CN1C(=O)S/C(=C\c2ccccc2)C1=O)NCCCn1ccnc1,i,3
NNC(=O)c1cc(O)c(O)c(O)c1,i,0.48
CC1CCC/C(=C(\C#N)c2nc(-c3cc4ccccc4oc3=O)cs2)C1 (configuration not stated),i,-0.02
CCOC(=O)N1CCC(Nc2ncnc3c2cnn3-c2ccc(C)cc2C)CC1,i,-0.08
O=S(=O)(NC1CC1)c1ccc(Cl)cc1F,i,0.04
CCCCC(CC)Cn1c(N)c(C#N)c2nc3ccccc3nc21 (configuration not stated),i,-0.35
CC(CCc1ccc(O)cc1)NC(c1ccccc1)c1ccc(Cl)cc1 (configuration not stated),i,-1.1
O=C(CCc1nnc(CCCCc2ccccc2)o1)NCc1cccc(F)c1,i,-2
Cc1cc(C(=O)Nc2ccc3ccccc3c2)c(C)o1,i,0.4
Cn1cnc([N+](=O)[O-])c1Sc1ccccc1,i,0.59
COc1ccc2c(c1)O/C(=C\c1ccccc1O)C2=O,i,1.9
CC(=O)NCCCc1nc2ccccc2n1Cc1c(F)cccc1Cl,i,1.8
O=C(Nc1ccc(Cl)c(-c2nc3ccccc3[nH]2)c1)c1ccc2c(c1)OCO2,i,-0.59
c1ccc2c(c1)ccc1nnc(SCc3ccc4c(c3)OCCO4)n12,i,-0.84
COc1ccc(CCNC(=O)CNS(=O)(=O)c2ccc(F)c(Cl)c2)cc1OC,i,1.1
CCN(C(=S)NC(=O)C1CCCC1)C1CCCCC1,i,-1
CCCCNC(=O)c1nn2cc(Br)cnc2c1Br,i,2.1
Cc1nn(-c2ccccc2)c(C)c1/C=N/N1CCN(c2ccccc2)CC1,i,-0.79
CCN(CC)S(=O)(=O)c1ccc2oc(C(=O)NC3CC3)c(C)c2c1,i,-0.38
COCCN(CCNC(=O)c1ccc(NC2=NC3CS(=O)(=O)CC3S2)cc1)Cc1ccco1 (configuration not stated),i,-0.01
N#C/C(=C\c1ccc(F)cc1)c1nc(-c2ccco2)cs1,i,1.7
O=C(O)c1ccc2c(c1)N(Cc1ccc(F)cc1)C(=O)c1ccccc1S2,i,1.5
CCOC(=O)CSc1n[nH]c(NS(=O)(=O)c2ccccc2C(F)(F)F)n1,i,0.43
O=C(CC1C(=O)NCCN1Cc1ccccc1F)NC1CCCCCC1 (configuration not stated),i,-0.71
CCC(OC(=O)c1cc2sccc2n1C)C(=O)NCc1ccco1 (configuration not stated),i,2.2
OCCOCCOc1ccc(-c2nn[nH]n2)cc1,i,0.35
N#C/C(=C/c1cn(CC(=O)O)c2ccccc12)C(=O)Nc1ccccc1,i,3.6
Cc1cccc(N2C(=O)CC(NNc3nc4ccccc4s3)C2=O)c1 (configuration not stated),i,-1.4
O=C(OCCN1C(=O)c2ccccc2C1=O)c1cc(S(=O)(=O)N2CCOCC2)ccc1F,i,-0.2
COc1ccccc1N1CCN(C2CC(=O)N(c3cccc(Cl)c3)C2=O)CC1 (configuration not stated),i,0.47

The list goes on:
SMILES,KCNQ2 inh,KCNQ2 inh baseline
O=C(CSc1nccn1-c1ccccc1)N1CCc2ccccc21,i,1.3
CN(C)CCn1c(COc2ccccc2)nc2ccccc21,i,0.45
CC(C)c1nc2cc(C(=O)N(C)C3CCOCC3)ccc2o1,i,1.5
COC(=O)CCCCCN1C(=O)NC(c2ccc(-c3ccccc3)cc2)C(C(=O)OCc2ccccc2)=C1C (configuration not stated),i,-3.2
CN(C)S(=O)(=O)c1c(Cl)cccc1Cl,i,2.2
Nc1o[nH]c(=O)c1Cc1ccccc1,i,0.08
O=C(NC1CCCCC1)c1cnn2c(C(F)(F)F)cc(-c3ccco3)nc12,i,-0.51
Cc1ccc(-n2c(=O)[nH]c3c(C(N)=O)nc(-c4ccc(C)o4)nc32)cc1,i,-2.2
CCOC(=O)n1c(=O)n(Cc2ccc(F)cc2)c2ccccc21,i,-0.78
COc1ccc(N(CCCN2C(=O)c3cccc4cccc(c34)C2=O)C(=O)c2cccnc2)cc1,i,-1.6

Full records as entered above. Values in the order: KCNQ2 inh, KCNQ2 inh baseline
Profile of N#C/C(=C/c1cn(CC(=O)O)c2ccccc12)C(=O)Nc1ccccc1 = i, 3.6
Profile of Nc1o[nH]c(=O)c1Cc1ccccc1 = i, 0.08
Profile of O=C(CSc1nccn1-c1ccccc1)N1CCc2ccccc21 = i, 1.3
Profile of CN(C)CCn1c(COc2ccccc2)nc2ccccc21 = i, 0.45

Additional structures:
SMILES,KCNQ2 inh,KCNQ2 inh baseline
CCCCOP(=O)(OCCCC)C1(NS(=O)(=O)c2ccccc2)C=CC(=O)c2ccccc21 (configuration not stated),i,1.4
Cc1nnc(SCCn2c(N3CCCC(C)C3)nc3c2c(=O)[nH]c(=O)n3C)s1 (configuration not stated),i,-0.03
Cc1ccc(S(=O)(=O)CCc2ccccn2)cc1,i,0.09
COc1ccccc1N1CCN(C(=O)c2noc(C)c2[N+](=O)[O-])CC1,i,1.8
CC1(c2nnc(-c3cccc(Cl)c3)o2)CC(c2cccc(F)c2)=NO1 (configuration not stated),i,1.1
O=C(Nc1nnc(Cc2ccc(Cl)cc2)s1)c1ccco1,i,-0.5
COc1ccc([N+](=O)[O-])cc1NC(=O)c1cn(-c2ccc(C)c(C)c2)c(=O)c2ccccc12,i,-0.8
Cc1ccc(-n2ncc3c(NCCCN4CCCC4=O)ncnc32)c(C)c1,i,-0.6
Cn1cnnc1SCC(=O)Nc1sc2c(c1C(N)=O)CCC2,i,1.1
O=C(Oc1ccccc1N1C(=O)C2CCCCC2C1=O)c1ccccc1 (configuration not stated),i,0.55
Cc1ccc(NC(=O)CCc2nc3sc4c(c3c(=O)[nH]2)CCCC4)c(Br)c1,i,0.94
CNc1nc(SCC(=O)OC)nc(N2CCOCC2)n1,i,0.33
C/C(=N\Nc1ccc([N+](=O)[O-])cc1)c1ccc(N)cc1,i,2.1
Cc1nc2ccc(S(=O)(=O)Nc3cccc(-c4nc5cccnc5s4)c3C)cc2s1,i,-0.43
Cc1cccc(C)c1NC(=O)N1C2CCCC1CC(NC(=O)C(C)(C)C)C2 (configuration not stated),i,-0.35
Cc1ccc(S(=O)(=O)Oc2cccc(/C=N/Nc3ccc(C(=O)O)cc3)c2)cc1,i,0.04
CC1=NN(c2ccccc2C(=O)O)C(=O)C1N=Nc1ccccc1 (configuration not stated),i,0.53
Cc1ccc(N(C(=O)c2cc3ccccc3oc2=O)C2C=CS(=O)(=O)C2)cc1 (configuration not stated),i,0.01
COc1ccc(/C=C(\NC(=O)c2ccc([N+](=O)[O-])cc2)C(=O)NCCCN2CCOCC2)cc1,i,-0.41
CC(C)CCn1c(CN(C)Cc2ccccc2)nc2c1c(=O)n(C)c(=O)n2C,i,-0.07
Cc1cc(N2CCC(C(=O)NC3CCCCC3)CC2)nc(-c2ccccc2)n1,i,-0.13
COC(=O)c1ccc(C23CC4(C2)[C@H](CN(Cc2cccnc2)[C@@H]4c2ccccc2)C3c2ccccc2)cc1 (some centres not stated),i,-0.17
NS(=O)(=O)c1ccc(CCNC(=O)C2CCCN2C(=O)OCc2ccccc2)cc1 (configuration not stated),i,1.4
CC(C)[C@H](NC(=O)[C@@H]1Cc2ccccc2CN1C(=O)OC(C)(C)C)C(=O)NCC1CCC(C(=O)O)CC1 (some centres not stated),i,-0.62
Cc1ccc(C(=O)N2CCc3cc4c(cc3C2C)OCCCO4)cc1 (configuration not stated),i,-0.64
CC(=O)Nc1nnc(SCC(=O)c2ccc3c(c2)Cc2ccccc2-3)s1,i,1.3
O=C(Nc1ccc(N2CCCCC2)cc1)c1ccccn1,i,-0.1
NC(=O)COC(=O)c1ccc2c(c1)S(=O)(=O)c1ccccc1C2=O,i,-1.5
O=c1c2c3c(sc2ncn1/N=C/c1ccccc1)CCCC3,i,-0.36
Cc1cccc(C(=O)Nc2nsc(N)n2)c1,i,-0.22
CN(CCCC(=O)NC1CC(C)(C)NC(C)(C)C1)S(=O)(=O)c1ccc([N+](=O)[O-])cc1,i,1.4
CCCCn1c(=O)nc2n(-c3ccc(OC)cc3)c3ccccc3cc-2c1=O,i,0.67
N#CCCn1cc(C(=O)N2CCOCC2)c(-c2ccc3c(c2)OCCO3)n1,i,1.2
CCCCOC(=O)C1=C(C)NC(=O)NC1c1cccc([N+](=O)[O-])c1 (configuration not stated),i,-0.19
CCOC(=O)/C(N=Nc1cc(C(=O)O)cc(C(=O)O)c1)=C(\O)CCl,i,2.8
COc1ccc(C)cc1NC(=S)NNC(=O)c1c(Br)cnn1C,i,-1.1
COc1ccc(Nc2nc(N3CCCCC3)nc3ccccc23)c(OC)c1,i,-1.3
CC(C)(C)c1csc(NC(=O)Cc2ccc(S(=O)(=O)N3CCOCC3)s2)n1,i,-0.74
COc1ccc(-c2nc3c4ccccc4ccn3c2CN2CCCCC2)cc1,i,-0.59
CC(=O)Nc1sc2c(c1C(c1cccc(F)c1)N1CCN(CCO)CC1)CCCC2 (configuration not stated),i,1.1

Continued; the last five above are carried over.
SMILES,KCNQ2 inh,KCNQ2 inh baseline
COc1ccc(C)cc1NC(=S)NNC(=O)c1c(Br)cnn1C,i,-1.1
COc1ccc(Nc2nc(N3CCCCC3)nc3ccccc23)c(OC)c1,i,-1.3
CC(C)(C)c1csc(NC(=O)Cc2ccc(S(=O)(=O)N3CCOCC3)s2)n1,i,-0.74
COc1ccc(-c2nc3c4ccccc4ccn3c2CN2CCCCC2)cc1,i,-0.59
CC(=O)Nc1sc2c(c1C(c1cccc(F)c1)N1CCN(CCO)CC1)CCCC2 (configuration not stated),i,1.1
Cc1cc(C)nc(NS(=O)(=O)c2ccc(NC(=O)c3cccc(N4C(=O)CCC4=O)c3)cc2)n1,i,0.81
COc1ccc2cc(CN(CCc3ccccc3)Cc3nnnn3CC3CCCO3)c(=O)[nH]c2c1 (configuration not stated),i,-0.02
COc1ccc(NS(=O)(=O)c2ccc(S(=O)(=O)N(C)C)cc2)cc1S(N)(=O)=O,i,2
COc1cccc(-c2cnc(OC(C)(C)C)nc2OC(C)(C)C)c1,-7*,-1.6*
COc1cccc(CNC(=O)c2nnn(-c3ccc(OC(F)(F)F)cc3)c2N)c1,i,0.3
COC(=O)C(C(=O)NCC1CCCO1)C1CCCCCC1 (configuration not stated),i,-0.16
Cc1ccc2cc(CN(Cc3cccs3)C(=O)c3ccco3)c3nnnn3c2c1C,-6*,2.2*
COc1ccccc1OCC(=O)NCCSCc1cccc(Cl)c1,-6.4*,-1.6*
O=C(Cc1cn2ccsc2n1)OCc1nc2ccccc2s1,i,-2
COc1ccc(C2CCCN2C(=S)Nc2cccc(C)c2)cc1OC (configuration not stated),i,2
CC(C)C(=O)Nc1c(-c2cccc(Cl)c2)c(=O)c2ccccc2n1C,i,-1.6
CC1CCCC(C)N1C(=O)CSCc1ccc(Cl)cc1 (configuration not stated),-6.3*,1.3*
COc1ccc(-c2nn(-c3ccccc3)cc2CNC(=O)c2cccc([N+](=O)[O-])c2)cc1,i,-0.63

Source: PubChem BioAssay
